MbtI inh = MbtI salicylate synthase inhibitors, primary screen, biochemical, fluorescence intensity; 0.89% of 100,000 active; inhibition, %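 (about 17 µg/mL by stock and volumes)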; P9WFX0; purified MbtI enzyme, fluorescence intensity read-out;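 active = above 50% in both replicates, above 80% if mildly self-fluorescent; inactive = the rest, strongly fluorescent compounds included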;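 also: 0% = mean of negative and 100% = mean of positive controls; one replicate is shown; some compounds called inactive have numbers as strong as hits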
Target sequence (P9WFX0 whole entry, looked up): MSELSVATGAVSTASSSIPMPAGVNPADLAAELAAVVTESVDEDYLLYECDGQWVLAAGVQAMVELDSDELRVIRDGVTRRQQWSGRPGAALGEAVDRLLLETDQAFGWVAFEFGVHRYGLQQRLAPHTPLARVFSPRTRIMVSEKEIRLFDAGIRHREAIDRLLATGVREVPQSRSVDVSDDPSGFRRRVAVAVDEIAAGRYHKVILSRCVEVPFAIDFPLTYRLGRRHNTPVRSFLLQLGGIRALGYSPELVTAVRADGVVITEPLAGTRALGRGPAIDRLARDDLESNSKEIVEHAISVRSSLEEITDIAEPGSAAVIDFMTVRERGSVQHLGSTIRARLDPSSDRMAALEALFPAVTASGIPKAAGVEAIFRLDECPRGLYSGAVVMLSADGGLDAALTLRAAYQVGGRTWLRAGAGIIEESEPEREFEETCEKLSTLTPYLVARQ
Active calls of the source: *. Some of the compounds tested; the hit share may differ from the screen's.

mol,MbtI inh
Cc1ccc(-c2nnc3c4cnn(Cc5ccccc5)c4ncn23)cc1,-9.0
Cc1ccc(C(CCNC(=O)c2cccs2)c2ccco2)cc1 (stereo not given),-8.4
O=C(O)C1C2C=CC3(CN(Cc4ccccc4)C(=O)C13)O2 (stereo not given),-6.2
c1csc(CNCc2cccs2)c1,-1.6
COC(=O)Cn1cnc2sc(C)c(S(=O)(=O)N3CC(C)CC(C)C3)c2c1=O (stereo not given),4.7
COc1ccc(-c2noc(=O)[nH]2)cc1,-16.9
O=C(O)CSCc1cnn(-c2ccccc2)c1-n1cccc1,-9.0
CN1CCN(c2cn[nH]c(=O)c2Cl)CC1,-8.3
Cn1c(=O)n(CCOc2ccc(Cl)cc2)c2ccccc21,6.7
O=C(O)CN1C(=O)c2cccnc2Sc2ccccc21,16.9
COC(=O)C1Cc2[nH]cnc2C(c2ccc(OC)c(OC)c2OC)N1 (stereo not given),-2.7
CCOC(=O)C1CCN(C(=O)c2n[nH]c(=O)c3ccccc23)CC1,6.8
COc1ccc(NC(=O)C(c2ccccc2)N(C)C(=O)Cc2c[nH]c3ccccc23)cc1 (stereo not given),-13.5
CC(=O)Nc1nonc1-n1c(C)ccc1C,-6.8
CCOC(=O)c1cc(-c2ccc(F)cc2)n(CC(=O)NCCN(C)C)c1C,-7.2
CCOC(=O)c1nnn(-c2nc(N3CCCC3)nc(N3CCCC3)n2)c1-c1ccccc1,-8.2
O=C(O)c1nn(-c2ccc(Cl)cc2)ccc1=O,-4.4
COc1ccc(NC(=O)C(c2ccccc2)N(Cc2ccco2)C(=O)Cc2cccs2)cc1 (stereo not given),-0.1
COC(=O)c1cc(=O)nc2sccn12,-10.2
Cc1nc2cccc(C(=O)NCc3ccccc3)c2o1,-5.4

Additional records:
mol,MbtI inh
Cc1ccccc1-c1n[nH]c(=S)o1,24.5
C=C(C)COc1ccc2oc(-c3ccccc3)c(C(=O)O)c2c1,81.7
Cc1cc(=O)n(C)c(=O)n1CCCN1CCCC1,-8.6
CCOc1ccc2c(c1)C(NCCN1CCOCC1)CC(C)(C)O2 (stereo not given),5.3
O=C(c1cc(=O)[nH]c2ccc(Br)cc12)N1CCC2(CC1)OCCO2,1.7
CCOC(=O)C(C#N)C(Cc1ccccc1)C1CCOC(C)(C)C1 (stereo not given),-5.1
COc1ccc(CCNC(=O)c2cc(=O)[nH]c3ccc(Br)cc23)cc1OC,-11.2
O=C(CN1C(=O)c2ccccc2Sc2ccccc21)NCc1ccccc1,-12.7
CCN(CC)CCSc1nnnn1-c1ccccc1,-10.1
C=CCOc1ccc2oc(=O)cc(C)c2c1,-20.3
O=C(O)c1c(-n2cccc2)sc2c1CCC2,-0.1
O=C(Nc1cccc(Cl)c1)OCc1ccc2c(c1)OCO2,-17.4
c1ccc(C2CCCSC2)cc1 (stereo not given),-10.7
CC(C)(CO)NC(=O)c1ccc2c(c1)C(=O)c1ccccc1-2,-9.9
Cc1ccc(NCc2ccccc2O)c(C)c1,-11.8
COC(=O)OC1CCS(=O)(=O)C1 (stereo not given),-15.5
COC(=O)c1ccc(-n2c(C)nc3ccccc3c2=O)cc1,-11.7
O=C1CC(c2ccccc2)Nc2ccc3ccccc3c21 (stereo not given),14.7
CCN(CC)CCn1c2ccccc2c2cnc(N)c(C#N)c21,-107.6
CCOC(=O)C(c1ccccc1)N1CCN(c2ccccc2F)CC1 (stereo not given),-10.6

(more compounds)
mol,MbtI inh
CCN(c1ccccc1)C1SC(=O)NC1=O (stereo not given),-18.6
COc1ccc(Cc2c(O)nc(SC)n(-c3ccccc3)c2=O)cc1,8.8
COc1ccc(NC(=O)CC(c2ccco2)c2ccccc2OC)cc1 (stereo not given),5.0
COc1cccc(N2C(=O)c3ccncc3C2=O)c1,-14.3
CCOC(=O)N1CCC(N2C(=O)c3ccc(C(=O)Nc4ccc(OC)c(Cl)c4)cc3C2=O)CC1,-2.6
CC(C)Oc1cccc(C(=O)O)c1,-0.3
CCOc1ccccc1CNc1ncn[nH]1,1.1
O/N=C(/CCc1ccccc1)C1(O)CCCCC1,-11.1
CCOC(=O)C1Sc2ccccc2NC1=O (stereo not given),2.3
CCOc1cc(-c2cc(N)n[nH]2)cc(OCC)c1OCC,-15.7
Cc1ccc(-c2n[nH]c(=O)c3ccccc23)cc1S(=O)(=O)NCC1CCCO1 (stereo not given),-7.3
Cc1ccc(NC(=O)COc2ccccc2O)cc1C,-11.2
O=C(Cn1cnc2scc(-c3ccccc3)c2c1=O)N1CCCC1,-9.6
C1=C(c2c[nH]c3ccccc23)CCNC1,-48.6
CCOC(=O)c1cnc2sccn2c1=O,5.4
N#Cc1c(N)nc2c(c1-c1ccccc1)CCCCC2,27.6
CCOC(=O)c1sc2nc(C)cc(C)c2c1N(C(C)=O)C(C)=O,-3.5
COC(=O)C(CC(C)C)NC(=O)c1ccc2c(c1)OCO2 (stereo not given),-7.3
Nc1ncc2c(n1)CC(c1ccccc1)CC2=O (stereo not given),-3.5
COc1ccc(NC(=O)C(c2ccccc2)N(C)C(=O)Cc2cccs2)cc1 (stereo not given),-2.8

New compounds follow:
mol,MbtI inh
NC(=O)CCCc1c[nH]c2ccccc12,-22.4
CCCN(CCC)C(=O)C1C2C=CC(C2)C1C(=O)O (stereo not given),-2.1
CCN(C(=O)NC1(C(F)(F)F)Oc2ccccc2O1)C1CCCCC1,12.1
Cc1cc(C)n(-c2nc(NC(C)C)nc(NC(C)C)n2)n1,-4.0
O=C(Nc1cccc(Cl)c1)c1scc2c1OCCO2,-5.2
O=C(O)C1C2C=CC(C2)C1C(=O)N1CCC(Cc2ccccc2)CC1 (stereo not given),-8.6
CC(Oc1ccc(Cl)cc1)C(=O)NCCCn1ccnc1 (stereo not given),-14.0
CC(=O)NCC1OCCc2ccccc21 (stereo not given),-14.8
Cc1ccc(-c2c(C)sc3ncn(C(C)C(=O)O)c(=O)c23)cc1C (stereo not given),-9.2
CCC(=O)N1CCc2cc(S(=O)(=O)CCC(=O)O)ccc21,-7.4
COC(=O)C1(C)Cc2ccccc2C(=O)O1 (stereo not given),0.4
CCOC(=O)c1ccc(Nc2c(N)c(=O)oc3ccccc23)cc1,1.2
CC(C)OC(=O)C1CC(C)(O)C(=O)C(C(=O)OC(C)C)C1c1ccc(N(C)C)cc1 (stereo not given),-8.6
CN(Cc1ccccc1)c1nnc(N)s1,-10.5
CCCOc1ccc(NC(=O)c2cc(=O)n(C)c(=NC)s2)cc1Br,-3.7
CC(C)Cc1ccc(S(=O)(=O)N2CCCc3ccccc32)cc1,20.4
C=CCn1c(SC)nc2sc3c(c2c1=O)CCCC3,-12.4
CN(C)CC#CCC1(O)c2ccccc2-c2ccccc21,-7.4
O=C(NCc1ccco1)Oc1ccccc1,-4.8
N#Cc1c(Nc2ccc(F)cc2)sc2c(O)cc(=O)[nH]c12,4.5

Continued.
mol,MbtI inh
Cc1nc2cccc(C(=O)N3CCCCCC3)c2o1,-11.9
CC1(C)CC(N(Cc2ccccc2)C(=O)Cc2ccccc2)CCO1 (stereo not given),-5.2
Cc1cc2c(c(SCC(=O)c3ccccc3)n1)C(=O)OC2,-5.8
Cc1ccc(NC(=O)COc2ccccc2)cc1,-4.0
COc1ccc(OC)c(C2CC(=O)C(C(C)C)C(c3cc(OC)ccc3OC)N2)c1 (stereo not given),-6.4
COc1ccc(NC(=O)C(c2ccc(C)cc2)N(C)C(=O)c2ccc(=O)[nH]c2)cc1 (stereo not given),-6.6
COc1ccc(CNC(=O)c2cncc(Br)c2)cc1,-5.6
C=CCN1C(=O)OC(C)(CCC=C(C)C)C1(C)O (stereo not given),-12.4
O=C(O)C1C(=O)NCC1c1ccccc1 (stereo not given),-1.6
O=S(=O)(Nc1ccc2c(c1)nc1n2CCN(Cc2ccccc2)C1)c1ccccc1,-12.2
CC(C)c1ccc(NC(=O)NC2(C(F)(F)F)Oc3ccccc3O2)cc1,-5.1
CCOc1ccc(Nc2nc(CC(=O)OC)cc(=O)[nH]2)cc1,-10.4
O=C(c1csc2c1CCCC2)N1CCc2ccccc2C1,1.2
NCCC(Cc1ccccc1)c1ccco1 (stereo not given),-11.6
C=CCOc1ccc(C(=O)N2CCOCC2)cc1,-5.9
COc1ccc(C2C(C(=O)NC3CCCC(C)C3C)c3ccccc3C(=O)N2C)cc1 (stereo not given),-6.9
CCc1ccc(NC(=O)c2cc3c(=O)oc4ccccc4c3s2)cc1,9.7
C=C(C)Cc1c(C)nc(N)[nH]c1=O,-9.3
O=C(NCC(=O)N1CCCC1)c1cccs1,-14.7
O=C1c2ccccc2C(=O)N1c1cccc(Br)c1,-5.2

Molecules shown so far containing a cyano group (4):
mol,MbtI inh
CCOC(=O)C(C#N)C(Cc1ccccc1)C1CCOC(C)(C)C1 (stereo not given),-5.1
CCN(CC)CCn1c2ccccc2c2cnc(N)c(C#N)c21,-107.6
N#Cc1c(N)nc2c(c1-c1ccccc1)CCCCC2,27.6
N#Cc1c(Nc2ccc(F)cc2)sc2c(O)cc(=O)[nH]c12,4.5

Further records follow:
mol,MbtI inh
Cc1[nH]c2ccccc2c1C1CC(=O)NC1=O (stereo not given),-10.9
O=C1C(Oc2ccc(Cl)cc2)C(c2ccc3c(c2)OCO3)N1CC1CCCO1 (stereo not given),-11.4
COc1ccc(CC(=O)NCc2ccco2)cc1OC,-11.6
CCCCc1nc(-c2ccc(Br)cc2)no1,-17.8
CC(C)C(NC(=O)C1CCCCC1)C(=O)NCc1ccco1 (stereo not given),-13.8
COc1ccc(OC)c(C(O)c2nc3ccccc3n2C(C)C)c1 (stereo not given),-16.0
CCOc1nc2ccccc2c(=O)n1Cc1ccccc1,-2.5
O=C(Cc1coc(-c2ccc(F)cc2)n1)NCc1ccccc1,-7.9
COC(=O)c1cn(NC(=O)c2cccc(OC)c2)c(=O)c2ccccc12,10.8
O=C(O)c1cc2c([nH]c1=O)CCCC2,-41.6
O=C(CCSCc1ccccc1Cl)NC1CCCC1,-13.7
O=C(c1cc2c(=O)oc3ccccc3c2s1)N1CCN(c2cccc(C(F)(F)F)c2)CC1,-5.7
O=C1c2ccccc2-c2c(-c3ccccc3)sc(=O)n21,11.6
CCCc1nn(-c2ccc(=O)[nH]n2)c(CCC)c1CC,-0.8
O=C(c1ccccc1)c1ccc[nH]1,2.3
CCc1c(C)sc(NC(=O)c2ccc(Cn3nc(C)c(Cl)c3C)o2)c1C(N)=O,47.5
COc1cc(NC(=O)c2ccc3c(-n4ccnc4)c4c(nc3c2)CCCC4)cc(OC)c1OC,-0.4
CCCCn1c(=N)n(CC(N)=O)c2ccccc21,-0.2
O=C(NCc1ccncc1)c1cccc(COc2ccc3c(c2)CCC3)c1,1.5
CCOC(=O)c1ccc(CNS(=O)(=O)c2cccc(S(=O)(=O)c3ccc(Cl)cc3)c2)o1,-17.5

Carrying on.
mol,MbtI inh
CCC1C(=O)n2nc(-c3ccccc3)cc2N=C1C (stereo not given),11.0
CCCCn1c(=O)[nH]c2c(c1=O)CCC2,-3.1
CN(C)C(=O)c1cc(S(=O)(=O)N(C)C)c(Cl)cc1N1CCCC1,3.6
Cc1cc(-c2ccccc2N)n[nH]1,-9.0
Cc1cc(C)c2c(-c3ccccc3)[nH]nc2n1,-57.2
C=CCN=c1sc(C(=O)OC)cc(=O)n1CC=C,-2.9
Cc1ccccc1OCc1nnc2n1CC(C)S2 (stereo not given),2.2
CCOc1ccc2nnnn2n1,-9.8
CCN1C(=O)CSc2ccc(C(=O)NC(C)C)cc21,-15.6
CCOC(=O)CSc1nn(-c2ccccc2)c(=S)s1,-2.7
O=C(CSc1nc(-c2ccccc2)nc2c1CCCC2)c1ccc(O)c(O)c1,-3.5
O=C(c1ccccc1S(=O)(=O)NCc1ccccc1)N1CCCCC1,-7.2
Cc1n[nH]c(C)c1CCC(=O)O,-5.9
Cc1cc2c(c(C)nn2-c2ccccc2)c(=O)o1,1.1
N#CC1(C#N)C(c2ccccc2)OC23CCCCC2C1(C#N)C(=N)O3 (stereo not given),142.8
CCOC1(OCC)N=C(N)C2(C#N)C(c3ccc(NC(C)=O)cc3)C12C#N (stereo not given),-14.3
Cc1ccc(CNC(=O)c2cccc(Cn3cc(Cl)cn3)c2)cc1,-1.8
CC(O)CNC(=O)COc1ccccc1 (stereo not given),-13.2
Cc1ccc(C2C3=C(CCCC3=O)NC3=C2C(=O)c2ccccc23)cc1 (stereo not given),-3.7
CC(C)(CO)NC(=O)COc1ccc(Cl)cc1Cl,-9.8

Look-ups from the list.
MbtI inh with O=C(c1ccccc1S(=O)(=O)NCc1ccccc1)N1CCCCC1 : -7.2
MbtI inh with CCOc1ccc2nnnn2n1 : -9.8

(next part)
mol,MbtI inh
COc1ccc(C(=O)Nc2nc3ccccc3[nH]2)cc1OC,-7.3
Fc1ccc(Cc2nnc(-c3ccc(F)cc3)o2)cc1,0.1
CCOC(=O)C(Nc1ccc2c(c1)OCCO2)c1ccccc1 (stereo not given),-5.0
CCOC(=O)C(N)CSC1CCCCO1 (stereo not given),1.9
Cn1cncc1C(O)c1ccccc1 (stereo not given),-2.9
O=C1CC(c2ccccc2)CN1S(=O)(=O)c1ccccc1 (stereo not given),-14.6
CN(C)S(=O)(=O)c1ccc(C(=O)NC(=O)CSc2ccccc2)cc1,41.3
N=C1N=C(N)C(Cc2ccccc2)S1 (stereo not given),84.2*
COc1ccccc1C(O)(CCN1CCCCC1)c1ccccc1 (stereo not given),-15.6
COc1ccc(CCC(=O)Nc2ccc3nc(N4CCC(C)CC4)cc(C)c3c2)cc1,107.4
C=CCOc1ccc(/C(CC)=N/O)cc1OC,-4.3

Bioassay records as filed in PubChem BioAssay.
